Source: PubChem
PINK1 modulator – changes PINK1 expression; PINK1 immunofluorescence, high-content cytometry, 24 h; Potency, µM (top dose mostly 76.6 µM), for the others: at the top dose activation (PINK1 increase), hits mostly activators; actives 0.2% (n = 410,000); active = well fitted activation curve with a large enough effect; inconclusive = small, poorly fitted or top-dose-only effect; inactive = flat fitted curve, though single readings scatter; cell line not stated here;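 note: potency is the fitted concentration of half-maximal effect; % of control where 0% means no effect; nearly all actives have a fitted effect of over 65% in size; a mitochondrial uncoupler was the plate control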
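Readout is PINK1 immunofluorescence, quantified alongside mitochondrial, cell and nuclear markers by laser-scanning microplate cytometry. Cells from a stable line were exposed to compound titrations (5 concentrations) for 24 hours, with CCCP controls.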
TRPML1 ag – activates the human TRPML1 channel. Q9GZU1. TRPML1-expressing cells, Ca2+ dye fluorescence, FDSS; host cell line not named in the record; reference of the full effect not given here. activation, % (concentration not given with the values). actives 0.12% (n = 410,000). AID 624414; in the data active = activation above about 50%; inconclusive = about 30% to 50%; inactive = below about 30%; note: 0% is about no effect; the text of the record puts the active cut at 80%
Target sequence (Q9GZU1 whole entry, looked up): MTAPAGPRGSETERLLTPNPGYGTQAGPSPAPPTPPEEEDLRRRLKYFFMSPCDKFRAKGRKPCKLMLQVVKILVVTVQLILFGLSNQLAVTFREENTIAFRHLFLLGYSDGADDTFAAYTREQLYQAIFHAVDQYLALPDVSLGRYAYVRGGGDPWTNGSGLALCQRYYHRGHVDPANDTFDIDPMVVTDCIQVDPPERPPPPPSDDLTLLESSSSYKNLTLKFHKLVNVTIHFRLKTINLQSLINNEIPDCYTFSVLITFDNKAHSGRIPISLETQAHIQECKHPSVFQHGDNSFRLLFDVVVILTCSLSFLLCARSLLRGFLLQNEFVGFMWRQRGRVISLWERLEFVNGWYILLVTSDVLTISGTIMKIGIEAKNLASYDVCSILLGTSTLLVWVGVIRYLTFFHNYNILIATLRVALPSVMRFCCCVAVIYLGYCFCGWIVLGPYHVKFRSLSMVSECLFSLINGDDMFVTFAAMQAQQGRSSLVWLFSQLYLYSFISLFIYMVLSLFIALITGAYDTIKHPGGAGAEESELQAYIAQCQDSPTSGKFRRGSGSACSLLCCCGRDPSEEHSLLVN
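In this qHTS format, compounds were pin-transferred onto Ca8-dye-loaded TRPML1-DL cells induced with Tet overnight, and intracellular Ca2+ fluorescence was recorded kinetically for 110 s after a 10 s baseline. A subsequent 4uM final 54-4 (EC80) addition followed by a second 110 s read served as the antagonist phase.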
Six1-Eya2 inh – blocks human Six1 binding to Eya2 | Q15475+O00167 | AlphaScreen GST-Six1/His-Eya2 binding, biochemical; hits give low values; control for the full effect not named in the record | activity change, % (test concentration not listed) | actives 0.56% (n = 360,000) | AID 651725; in the data active = activity change below about -65%; inconclusive = about -30% to -65%; inactive = above about -30%; note: % is set by controls: 0 for no effect and ±100 for the full control effect; compound concentration not given in the record
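GST-Six1 + His-Eya2 (5X stock: 250/500 nM); Tris pH 8.0, 300 mM NaCl, 0.05% BSA, 0.02% Tween 20; GSH donor/Ni acceptor beads; 1 h 37 °C dark; AlphaScreen readout.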
TRPML1 blocker – inhibitors of human TRPML1 channel; Q9GZU1; TRPML1-inducible cells, Ca2+ dye fluorescence, FDSS; hits give low values; inhibition of EC80 agonist-evoked calcium signal; activity change, negative = inhibition, % (no concentration beside the values); actives 0.02% (n = 390,000); AID 624415; in the data active means activity change below about -50%; inconclusive means about -30% to -50%; inactive means above about -30%;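 note: stimulus is agonist 54-4 at its EC80 concentration; % is set by controls: 0 for no effect and ±100 for the full control effect; compound concentration not given in the record; the text of the record puts the active cut at -80%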
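TRPML1-DL cells, Tet-induced overnight (~16 h, 37 °C) at 1,500 cells/well, were loaded with Ca8 no-wash dye plus quencher for 45-90 min at room temperature. Compounds were pinned during FDSS kinetic reading; agonist 54-4 at EC80 (4 uM final) then added.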
CtBP-E1A blk – inhibitors of CtBP/E1A interaction. AlphaScreen GST-E1A/His-CtBP binding, 1536-well; hits give low values; control for the full effect not named in the record. activity change, % (test concentration not listed). actives 0.49% (n = 340,000). AID 651724; in the data active means activity change below about -65%; inconclusive means about -30% to -65%; inactive means above about -30%; note: % is set by controls: 0 for no effect and ±100 for the full control effect; compound concentration not given in the record
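AlphaScreen with 125 nM GST-E1A and 125 nM His-CtBP (5X stocks) in Tris pH 8.0, 300 mM NaCl, BSA, Tween 20, TCEP. Compounds preincubated 2 h at 37 deg C, then glutathione donor/nickel acceptor beads added for 1 h at 37 deg C in dark.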
D2 agonist – agonists of human D2 dopamine receptor (beta-arrestin). P14416. DiscoveRx PathHunter D2 beta-arrestin, luminescence, 90 min; 100% = 57 uM dopamine signal. activation, % (no concentration beside the values). actives 0.084% (n = 360,000); in the data active = activation above about 40%; inconclusive = about 15% to 40%; inactive = below about 15%; note: compound concentration not given in the record; the text of the record calls up to 30% inactive
Target sequence (P14416 whole entry, looked up): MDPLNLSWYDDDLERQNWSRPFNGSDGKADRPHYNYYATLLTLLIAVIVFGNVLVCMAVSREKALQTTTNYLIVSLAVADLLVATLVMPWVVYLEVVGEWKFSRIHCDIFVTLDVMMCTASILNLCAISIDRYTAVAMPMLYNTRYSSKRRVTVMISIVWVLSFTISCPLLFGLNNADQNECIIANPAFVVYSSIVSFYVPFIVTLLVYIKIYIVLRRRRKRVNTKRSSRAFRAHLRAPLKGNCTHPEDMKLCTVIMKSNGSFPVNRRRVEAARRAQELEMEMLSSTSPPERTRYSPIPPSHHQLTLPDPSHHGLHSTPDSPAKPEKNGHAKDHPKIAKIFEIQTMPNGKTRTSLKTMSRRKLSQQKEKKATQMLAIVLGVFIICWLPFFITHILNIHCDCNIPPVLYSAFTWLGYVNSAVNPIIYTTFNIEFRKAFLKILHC
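Agonist mode: compounds alone added to overnight-plated D2 PathHunter cells for 90 min at 37 C, with 57 uM final dopamine (EC100) defining full response. Beta-arrestin recruitment detected by chemiluminescent reagent, read after 1 h at ambient temperature.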
The depositor's hits bear a star; ? = inconclusive; / = no result given; & = joins results of further samples; [ ] = dose if it differs, or a comment.

SMILES,PINK1 modulator,TRPML1 ag,Six1-Eya2 inh,TRPML1 blocker,CtBP-E1A blk,D2 agonist
CCc1c(C)nc2ncnn2c1NC1CCCc2ccccc21 (stereo not given),2.9%,0.1,4,-9,7,-2.6
CCCCCn1c(=O)[nH]c2cc(C(=O)NCCN(C)CCCC)ccc2c1=O,0.0%,0.6,/,23,/,/
CCOc1ccc(/C=C2/Sc3ccc(C(=O)N4CCOCC4)cc3N(C)C2=O)cc1OC,-0.2%,0.3,-4,-6,-5,4.4
O=C(NC1CCCc2c1cnn2-c1ccccc1F)c1ccccn1 (stereo not given),1.9%,-0.1,-3,32,/,-1.9
CCCCc1ccc(NC(=S)N2CCN(C(=O)c3ccco3)CC2)cc1,0.5%,1.7,1,4,-16,2.9
Cc1noc(C)c1S(=O)(=O)NC(=O)C1(C)CCN1C(=O)CC(c1ccccc1)c1ccccc1 (stereo not given),3.7%,-0.5,0,/,6,5.9
COc1ccc(-c2nnco2)cc1OC,0.7%[38.3 µM],-0.3,-1,-19,7,-2.9
CCOc1cccc(/C=C/c2ccc3ccccc3n2)c1OC(C)=O,-0.2%,1.3,8,-1,/,-6.8
Cc1nc2ccc(NS(=O)(=O)c3c(C)c(C)cc(C)c3C)cc2s1,6.3%,-0.6,-2,42,-3,0.7
COc1cccc(C(=O)O/N=C/c2ccc(Sc3ccc(C)cc3)nc2)c1,2.1%,1.1,7,6,-2,0.2
OC[C@@H]1CN(Cc2cccs2)C[C@H](n2cnc3c(N4CCN(c5ccccc5)CC4)ncnc32)O1,3.5%,-0.5,?,/,?,8.9
O=[N+]([O-])c1ccc(Sc2cccc3cccnc23)c2cccnc12,?,0.8,-11,-13,/,0.6
Cn1cc(-c2coc3c(C(=O)NCc4ccco4)cccc23)cn1,1.2%,14,-23,/,-11,7.9
O=C(Nc1ccccc1)OCC1CCCO1 (stereo not given),1.3%,1.2,5,7,-3,-3.8
COC(=O)c1ccccc1NC(=O)N1CCN(S(=O)(=O)c2ccc(Cl)cc2)CC1,-0.1%,1.7,21,4,0,-1.9
Cc1ccc(NC(=S)NC(=O)/C=C/c2ccc(Cl)cc2)cc1,5.1%,-0.3,2,-14,1,-1.7
COn1c(-c2ccc(C)cc2)nc2ncccc21,3.6%,1.5,-7,33,2,1.9
O=C(NCc1ccccc1)c1cc(C2COCCN2C(=O)OCCF)on1 (stereo not given),0.4%,-0.7,3,/,-1,-4.3
CCOc1ccc(S(=O)(=O)NCc2ccc3c(c2)OCO3)cc1C(=O)O,0.7%,0.0,-2,1,0,-0.7
Cc1cc(C)cc(Nc2c3c(nc4ncnn24)CCC3)c1,0.1%,2.6,17,2,26,7.0
CC1CCCCC1n1c(=S)[nH]c2ccccc2c1=O (stereo not given),?,0.4,-1,2,-10,1.9
COc1ccc(OCCOC(=O)CNS(=O)(=O)c2ccc(SC)c([N+](=O)[O-])c2)cc1,6.3%,0.2,?,7,-5,-2.6
COC(=O)c1ccc(C2/C(=C(/O)c3ccc4c(c3)CC(C)O4)C(=O)C(=O)N2CCN2CCOCC2)cc1 (stereo not given),0.0%,-0.6,6,?,-1,-4.5
COC(=O)c1ccc(/C=C2\Oc3ccccc3NC2=O)cc1,2.8%,-0.6,5,-5,10,-3.3
COc1ccc(S(=O)(=O)n2ccc(C(C)Oc3ccc(-c4ccccc4)c(F)c3)n2)cc1 (stereo not given),2.0%,8.9,6,1,8,-2.7

(further entries)
SMILES,PINK1 modulator,TRPML1 ag,Six1-Eya2 inh,TRPML1 blocker,CtBP-E1A blk,D2 agonist
COc1ccc(C2(O)C(=O)Nc3ccccc32)cc1 (stereo not given),-0.4%,-0.4,2,24,11,-5.0
CC(=O)c1ccc(NC(=O)CN2C(=O)NC3(CCc4ccccc43)C2=O)cc1 (stereo not given),1.7%,0.1,0,-9,/,10
CCOc1ccc(CCNC(=O)Cn2nnc(-c3ccc(C(F)(F)F)cc3)n2)cc1OCC,4.4%,-0.7,/,-8,/,/
Cc1ccc(OCC(=O)NC(=S)Nc2cccc(NC(=O)c3ccccc3Cl)c2)cc1,13%,0.7,-7,2,6,-4.1
Cc1nc(SCC(=O)NC(C)c2ccccc2)c2oc3ccccc3c2n1 (stereo not given),2.0%,0.1,-1,8,-1,-4.3
O=C1NC(Cc2ccc(O)cc2)c2nc3cc(Cl)ccc3c(=O)n2-c2cc(Cl)ccc21 (stereo not given),-0.1%,-1.2,-6,14,-1,-1.6
CCOc1ccc(CCNC(=O)/C=C/c2ccco2)cc1OCC,-1.1%,-0.3,0,-3,6,-4.3
Cc1cccc(C2c3[nH]c4ccccc4c3CCN2Cc2cccn2-c2ncccn2)c1 (stereo not given),?,0.1,?,-3,-12,-2.5
Cc1ccc(NC(=O)Cn2cc([N+](=O)[O-])nc2C)cc1C,4.4%,0.2,-2,-5,4,-4.8
CC(C)(C)NC(=O)NC(=O)CN1CCN(Cc2ccccc2)CC1,-2.3%,-0.4,-4,21,/,-1.0
COc1cccc(NC(=S)N(CCCN2CCCC2)Cc2cccn2Cc2ccc(Cl)cc2)c1,-1.0%,0.7,-22,1,-20,-2.5
Cc1cc2c(nn1)CCC/C2=N\O,-0.1%,-0.4,1,8,13,-3.1
Cc1cc2c3c([nH]c2cc1S(=O)(=O)NCc1ccc(CN2CCCCCC2)o1)CCCC3=O,-2.0%,0.6,-1,20,-18,-3.6
COc1ccc(C(=O)N2CCN(Cc3ccccc3C(F)(F)F)CC2)cc1,1.0%,-0.8,-2,2,0,-0.2
CC(C)N1CCN(C(=O)c2ccc(OC3CCN(CCc4ccccc4)CC3)cc2)CC1,3.2%,0.8,-10,-9,7,-2.4
CCOC(=O)c1[nH]c2c(c1Cc1ccccc1C)C(=O)CC(c1ccccc1)C2 (stereo not given),1.8%,2.5,/,15,/,/
CN(c1ccc(OCc2ccc([N+](=O)[O-])cc2)cc1)S(=O)(=O)c1ccccc1,0.4%,3.9,-10,82,-10,10
CC(OC(=O)CCNS(=O)(=O)c1cccs1)C(=O)Nc1ccc(S(N)(=O)=O)cc1 (stereo not given),0.9%,3.2,-1,-6,0,5.6
CC(=O)Nc1ccc(/C=C2\CCc3ccccc3C2=O)cc1,-0.2%,-0.7,-8,0,5,-1.9
COC(=O)C1=CN(Cc2ccc(OC)cc2)C=C(C(=O)OC)C1c1cc(OC)c(OC)c(OC)c1,0.2%,1.7,6,47,18,6.4
Cc1ccn2c(Nc3ccccc3C)c(-c3ccncc3)nc2c1,1.2%&6.2%,-0.7&2.0,-1,-6&-6,2,-0.9
CCSC1=C(C#N)C(c2cccs2)C(C(=O)OC)=C(C)N1 (stereo not given),2.8%,1.0,16,19,20,4.1
Cc1ccc(C23OC(=O)C(C)(C)C2OC(=O)C3(C)C)cc1 (stereo not given),0.1%,-0.4,3,31,8,-1.9
O=C(CN1C(=O)c2cccnc2C1=O)c1ccccc1,-2.5%[38.3 µM],-0.8,-5,6,-3,-1.7
O=C(N/N=C/c1coc2ccccc2c1=O)c1ccccc1,1.5%,1.6,3,-6,0,-1.3

For reference, 3 of the compounds above:
SMILES,PINK1 modulator,TRPML1 ag,Six1-Eya2 inh,TRPML1 blocker,CtBP-E1A blk,D2 agonist
Cc1ccc(C23OC(=O)C(C)(C)C2OC(=O)C3(C)C)cc1 (stereo not given),0.1%,-0.4,3,31,8,-1.9
O=C(CN1C(=O)c2cccnc2C1=O)c1ccccc1,-2.5%[38.3 µM],-0.8,-5,6,-3,-1.7
O=C(N/N=C/c1coc2ccccc2c1=O)c1ccccc1,1.5%,1.6,3,-6,0,-1.3

The list goes on.
SMILES,PINK1 modulator,TRPML1 ag,Six1-Eya2 inh,TRPML1 blocker,CtBP-E1A blk,D2 agonist
Cc1noc(/C=C/N(C)C)c1S(=O)(=O)N1CCCC(C(=O)N2CCc3ccccc32)C1 (stereo not given),8.5%,0.9,3,-7,-1,-2.0
CCN(CC)C(=O)c1sc(N2C(=O)Nc3ccccc3N2O)c(C(=O)OC)c1C,0.6%,0.1,2,-13,0,-3.0
O=[N+]([O-])c1ccc(NS(=O)(=O)c2ccc(Cl)c(Cl)c2)cc1,16µM*,-0.1,-7,/,-2,-4.8
NC(=O)N=Nc1c(O)n(Cc2ccccc2)c2ccc(Br)cc12,3.6%,1.7,-18,-2,-12,8.8
COc1cccc(OC)c1C(=O)NCCOc1cc(C)cc(C)c1,-1.5%,0.1,2,-2,5,5.9
CN1c2ccccc2C(C)(C)C12CC(CCl)=NO2 (stereo not given),-2.7%,2.3,2,-11,-7,0.2
O=C(/C=C\c1ccc2c(c1)OCO2)NC1(C(=O)Nc2ccc3c(c2)OCO3)CCCCC1,8.5%,0.9,1,31,10,-0.8
COCCN1C(=O)C(CC(=O)Nc2ccccc2)SC1=Nc1ccc(OC)cc1 (stereo not given),-1.0%,-0.9,0,2,-5,-6.0
CCOc1ccc(S(=O)(=O)NCCc2sc3nc(-c4ccc(F)cc4)nn3c2C)cc1,1.1%,2.5,/,25,/,/
COc1ccc(NS(=O)(=O)c2ccc(N3CCOCC3)c(NC(=O)c3ccccc3Br)c2)cc1,-0.5%,1.7,1,-21,8,0.8
CC(=O)Nc1ccc(S(=O)(=O)NCCC(=O)NNC(=O)c2ccccc2O)cc1,-1.8%,-0.4,-11,4,-2,-3.9
CC(C)OC(=O)CSc1nnc(-c2cnccn2)n1-c1ccc(Cl)cc1,-3.2%,-0.8,3,6,3,-4.4
CC1=C(C(N)=O)C(c2ccc(F)cc2)n2nc(-c3ccc(N(C)C)cc3)nc2N1 (stereo not given),0.9%,-0.6,/,16,/,/
COc1ccc(C2=NC(CO)(CO)CO2)cc1,-1.2%,-0.4,-4,-8,10,1.5
CCc1nc(N)c(C#N)c(-c2ccncc2)c1C,-4.1%[38.3 µM],-0.4,6,-8,1,-0.4
Cc1ccc(S(=O)(=O)N(C)C)cc1NC(=O)COC(=O)c1c(C)noc1C,3.6%,-0.4,-6,-8,6,-4.1
Cc1cc(C)cc(NC(=S)NCCCN2CCOCC2)c1,3.4%,-0.2,7,11,5,-1.7
COC(=O)c1c(C(=O)OC)c(-c2ccc(C)cc2)n2c1CS(=O)(=O)C2,-0.4%,-0.6,-3,27,6,-2.0
N#Cc1c(F)cccc1NCc1cccs1,5.4%,2.5,9,7,12,-4.3
COc1ccccc1NS(=O)(=O)c1ccc2[nH]c(=S)oc2c1,1.1%,-0.4,15,-7,-24,-1.7
CN(NS(=O)(=O)c1ccc(Cl)cc1)c1cnn(C)c(=O)c1Cl,-0.6%,2.1,1,-1,2,-1.7
O=C(CN1CCN(Cc2ccc(Cl)cc2)C1=O)NCc1ccc(F)cc1,-0.2%,0.2,/,4,/,/
